FEN1 inh – human FEN1 inhibition. P39748. Recombinant FEN1 flap cleavage, fluorescence, 15 min. Potency, µM (series often up to 114 µM), inactives show top-dose activity change, negative = inhibition, most hits filed as inhibitors. 390,000 tested, 0.35% active; further: nearly all actives have a fitted effect of over 65% in size
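Quantitative HTS format: each compound was titrated, incubated with 10 nM nuclease for 15 min at room temperature, then challenged with flap substrate at 50 nM final. Signal change over 15 min gave concentration–effect curves.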
GCN5L2 inh – inhibitors of human GCN5L2 histone acetyltransferase; AID 504327; Potency, µM (titrated, usually from 58.9 µM), inactives show at the highest dose activity change, negative = inhibition, actives largely listed as inhibitors; GCN5L2 HAT assay, ThioGlo1 CoA-SH fluorescence; Q92830; 390,000 tested, 0.21% active
Target sequence (Q92830 whole entry, looked up): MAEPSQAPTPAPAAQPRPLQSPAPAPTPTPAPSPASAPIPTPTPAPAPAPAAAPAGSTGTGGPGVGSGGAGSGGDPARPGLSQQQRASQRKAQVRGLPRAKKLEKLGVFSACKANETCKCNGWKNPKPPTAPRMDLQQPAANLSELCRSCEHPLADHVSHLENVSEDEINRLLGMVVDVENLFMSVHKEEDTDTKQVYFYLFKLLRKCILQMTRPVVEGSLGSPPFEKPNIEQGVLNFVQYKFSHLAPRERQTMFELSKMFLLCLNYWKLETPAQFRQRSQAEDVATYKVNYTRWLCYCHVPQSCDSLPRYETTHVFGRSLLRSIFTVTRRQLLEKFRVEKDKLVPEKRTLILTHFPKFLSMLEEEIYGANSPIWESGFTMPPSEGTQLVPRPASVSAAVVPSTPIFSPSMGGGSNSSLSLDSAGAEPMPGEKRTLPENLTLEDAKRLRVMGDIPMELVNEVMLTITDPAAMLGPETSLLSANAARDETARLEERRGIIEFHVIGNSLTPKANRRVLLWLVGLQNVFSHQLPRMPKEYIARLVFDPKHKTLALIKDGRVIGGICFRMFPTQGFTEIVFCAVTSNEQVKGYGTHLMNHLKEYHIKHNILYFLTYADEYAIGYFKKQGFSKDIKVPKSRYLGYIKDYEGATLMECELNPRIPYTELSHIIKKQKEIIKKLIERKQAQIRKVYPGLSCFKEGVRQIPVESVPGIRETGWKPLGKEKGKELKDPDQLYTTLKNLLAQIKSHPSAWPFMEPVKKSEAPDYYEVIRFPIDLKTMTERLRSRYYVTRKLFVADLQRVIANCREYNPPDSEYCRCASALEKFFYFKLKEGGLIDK
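GCN5L2 (20 nM) in 50mM HEPES pH 7.5, 0.1mM EDTA, 0.01% Tween-20 preincubated 15 min with compounds at room temperature. Reaction started with H3(1-25) 75uM, acetyl-CoA 70uM, ThioGlo1 50uM; CoA-thiol fluorescence (Ex340/Em540) read at 0 and 20 min.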
The depositor's hits bear a star; u = inconclusive; x = not tested or not shown; & = joins results of further samples; [ ] = remark or other dose. The call rests on the fitted dose curve; in most records, active means well fitted curve in the direction sought with a large enough effect; inconclusive means small, poorly fitted or top-dose-only effect, or another doubt; inactive means no such curve, though single readings can be large; an effect the other way counts as inactive or inconclusive. On the % scale 0 is the no-effect control and ±100 the full control effect; potency means the concentration at half of the fitted maximal effect. Some of the compounds tested, and most or all hits are left out here.

SMILES | FEN1 inh | GCN5L2 inh
COc1cc(NC(=O)CCCNC(=O)Cn2cnc3sc(C)c(C)c3c2=O)cc(OC)c1OC | 8.0% | -1.4%
O=C(COc1ccc2c(-c3ccccc3)cc(=O)oc2c1)NCCN1CCOCC1 | -11.5% | -2.7%
CCc1ccc(N2CC(C(=O)Nc3nnc(CC)s3)CC2=O)cc1 (stereo not drawn) | -6.1% | -9.3%
CCOc1ccccc1NC(=O)c1ccc2c(c1)C(=O)N(CC(C)C)C2=O | 6.6% | -1.7%
Cc1cc(C)cc(NC(=O)C2CCN(c3nccs3)CC2)c1 | 8.7% | -4.3%
Cc1ccc(-c2csc3ncnc(NCCC(=O)O)c23)cc1C | -5.3% | -0.4%
CCOC(=O)N1CCC(NC(=O)CCc2c(C)nc3ncnn3c2C)CC1 | -3.5% | -11.4%
S=c1[nH]nc(Cc2ccccc2)n1-c1cccc2ccccc12 | 1.9% | -1.5%
CC(=O)c1cc(-c2ccccc2)n(CC(=O)N2CCCCC2)c1C | -0.4% | -11.7%[0.501 µM]
O=C(Nc1ccccc1F)N1CCCC1c1cccnc1 (stereo not drawn) | -2.4% | 4.1%
O=C(Nc1ccc(-n2cccn2)cc1)C1CCCCN1Cc1cccc2c1OCO2 (stereo not drawn) | -21.9% | -9.0%
Nc1nc(SCC(=O)Nc2ccccc2)[nH]c(=O)c1-c1ccccc1 | 2.9% | -6.5%[0.501 µM]
CCC(C)(C)n1nnnc1CN1CCC(NC(=O)c2ccccc2C)CC1 | -11.6% | -2.6%
COc1cccc(C2N=C(c3ccccc3C)NO2)c1OC (stereo not drawn) | 7.1% | -2.5%
Cc1ccc(C(=O)COc2nc(C)cc(C)c2C#N)cc1 | 6.0% | -3.1%
COc1ccc(C(C#N)Nc2ccccc2C)cc1 (stereo not drawn) | -2.5% | -5.3%
COc1cc(C(=O)NCCC2=CCCCC2)cc(OC)c1OC | -13.0% | -4.1%
COc1cc(/C=N/Nc2ccc(C(F)(F)F)cn2)cc(OC)c1O | 8.7% | -15.1%
O=C(O)CCC(=O)NNc1ncnc2ccccc12 | 16.6% | 0.5%
Cn1cnnc1Sc1cc(N2CCN(S(=O)(=O)c3ccccc3)CC2)ccc1[N+](=O)[O-] | 2.0% | -11.0%

By substructure, the compounds so far with a halogen
SMILES | FEN1 inh | GCN5L2 inh
O=C(Nc1ccccc1F)N1CCCC1c1cccnc1 (stereo not drawn) | -2.4% | 4.1%
COc1cc(/C=N/Nc2ccc(C(F)(F)F)cn2)cc(OC)c1O | 8.7% | -15.1%

Continued.
SMILES | FEN1 inh | GCN5L2 inh
O=C(CCC(=O)c1ccc(F)cc1)Nc1cccc(S(=O)(=O)Nc2cccc(Cl)c2)c1 | -10.0% | -10.5%
O=C(CCc1c[nH]c2ccccc12)N1CCN(S(=O)(=O)c2ccc(F)cc2)CC1 | 5.9% | -3.7%
CCN1CCN(C(=O)C2CCN(S(=O)(=O)c3ccc(Br)cc3)CC2)CC1 | -4.0% | -3.2%
O=C1N=c2ccccc2=C1c1sc(=S)n(CC2CCCO2)c1O (stereo not drawn) | 7.3% | -1.1%[0.501 µM]
CC(C)(C)NC(=O)Nc1cccc(Cl)c1Cl | -5.0% | -5.1%
CCC(C)OC(=O)c1[nH]c2c(c1C)C(=O)CC(c1ccc(N(C)C)cc1)C2 (stereo not drawn) | 3.5% | u
COc1ccc(-c2cccc(NS(=O)(=O)c3cc([N+](=O)[O-])ccc3Cl)c2)nn1 | -5.5% | -5.1%
CCOC(=O)c1cnc(N)nc1C(F)(F)F | 7.0% | -19.4%
CC(=O)NC1CC2CCCC(C1)N2CC(=O)Nc1ccccc1 (stereo not drawn) | 1.0% | -6.9%
Cc1ccc(CC2C(=O)N(c3cc(C)ccc3C)C(=O)C2C)cc1 (stereo not drawn) | 1.1% | -0.6%
CCOc1nc(Nc2ccccc2)nc(OCC)n1 | -9.1% | 1.5%
COc1cccc(Cn2c(=O)c(-c3cccc(C#N)c3)nc3cnc(N4CCOCC4)nc32)c1 | x | -0.9%
CCCn1cnc2cc(NC(=O)c3cccs3)ccc21 | -1.5% | -15.8%
O=c1c2cn[nH]c2[nH]c(=S)n1-c1ccccc1Cl | 6.2% | -7.2%
O=C(OCC1OC(n2ccc(=O)[nH]c2=O)C(Cl)C1O)c1ccccc1 (stereo not drawn) | 4.2% | 3.0%
COc1ccc(CCC(=O)c2c(O)cc(OC3OC(CO)C(O)C(O)C3O[C@@H]3OC(C)C(O)C(O)C3O)cc2O)cc1O (stereo partly drawn) | x | -8.7%
Cc1ccc(NC(=O)c2ccc(S(=O)(=O)NCc3ccco3)cc2)cc1 | 10.4% | -6.5%
Cc1ccc(C)c(-n2c(SCC(=O)Nc3nnc(C)s3)nnc2-c2ccoc2C)c1 | 9.2% | 2.3%
O=C(CNS(=O)(=O)c1ccc(Br)s1)NCc1ccc(F)cc1 | -1.3% | -5.6%
CCN(CC)C(=O)NC1CC(=O)N(c2ccc(OC)cc2)C1 (stereo not drawn) | 6.6% | -0.7%

Three compounds from above, ordered by their value in GCN5L2 inh, rising:
SMILES | GCN5L2 inh
Cn1cnnc1Sc1cc(N2CCN(S(=O)(=O)c3ccccc3)CC2)ccc1[N+](=O)[O-] | -11.0%
COc1ccc(C(C#N)Nc2ccccc2C)cc1 (stereo not drawn) | -5.3%
CCN(CC)C(=O)NC1CC(=O)N(c2ccc(OC)cc2)C1 (stereo not drawn) | -0.7%

(cont.)
SMILES | FEN1 inh | GCN5L2 inh
CCN1CCCC1Cn1cnc2c([nH]c3ccc(OC)cc32)c1=O (stereo not drawn) | 1.0% | 1.6%
CC(NC(=O)c1cc(-c2ccc(Br)cc2)on1)c1ccccc1 (stereo not drawn) | 4.3% | 8.7%
CCCCn1c(N)c(N(Cc2ccccc2OC)C(=O)C(C)Oc2ccc(F)cc2)c(=O)[nH]c1=O (stereo not drawn) | -11.8% | -0.7%
CCn1c(SCC(=O)N2CCN(c3ccccc3)CC2)nc2c([nH]c3ccccc32)c1=O | 2.3% | -2.0%
CCc1ccc(NC(=O)CSc2n[nH]c(=O)n2C2CC2)cc1 | -5.1% | 1.6%
[O-]/[N+](=C\C=C\c1ccccc1)c1ccccc1 | -2.5% | -0.9%
CCOC(=O)CN(C(=O)CNC(=O)c1ccco1)C(C(=O)NC1CCCCC1)c1cccnc1 (stereo not drawn) | -10.4% | -3.4%
Cc1nc(C(=O)N2CCC(n3nccc3NC(=O)Nc3ccccc3Cl)CC2)cs1 | -1.6% | -6.9%
Cc1ccc(S(=O)(=O)N2CCCC(NC(=O)N3CCN(c4ccccc4)CC3)C2)cc1 (stereo not drawn) | -7.0% | -7.5%
O=C(Cn1cc2c(n1)CCCC2)Nc1cc(-c2cccc(Cl)c2)no1 | -16.2% | -13.1%
CS(=O)(=O)Nc1ccccc1C(=O)NCc1ccco1 | 3.4% | 1.3%
CC(=O)C1=C(O)C(=O)N(c2ccc(O)cc2)C1c1ccccc1F (stereo not drawn) | -4.9% | -5.5%
Cc1cc(-c2nc(C)c(C(=O)NN)s2)no1 | 6.5% | -8.5%
CCC(C)NC(=O)CC1Oc2ccc(Cl)cc2NC1=O (stereo not drawn) | 18.6% | -3.1%
CC(C)(C)c1csc(N(CCC#N)CCC#N)n1 | 0.1% | -1.3%
CCc1ccc(N2CC(C(=O)Nc3ccc4c(c3)OCCO4)CC2=O)cc1 (stereo not drawn) | -13.6% | 0.1%
CCCN(CCC)CC(=O)NCC1(c2ccccc2)CCOCC1 | 0.1% | -1.2%
CC1CCCCC1Nc1ncnc2sccc12 (stereo not drawn) | -3.8% | -4.0%
CCOc1ccccc1C1C(C#N)=C(N)Oc2cc(C)n(C)c(=O)c21 (stereo not drawn) | -6.8% | -0.1%
CC1C(C#N)=C(N)OC2=C1C(=O)CC(c1ccccc1)C2 (stereo not drawn) | 5.4% | -0.1%
COc1ccccc1Nc1nc(Cl)nc(NC(C)(C)C)n1 | -17.6% | -5.2%
O=C(CN1CCN(c2ccccc2O)CC1)NC(=O)NC1CCCC1 | 1.2% | -7.0%
CCOc1ccc(-c2ccc(SCC)nn2)cc1 | -0.5% | -6.2%
Cc1ccc(C(=O)NCC(=O)OCC(=O)Nc2ccc3[nH]c(=O)[nH]c3c2)cc1 | -4.7% | 0.3%
S=c1nc(NCc2ccc3c(c2)OCO3)c2ccccc2[nH]1 | -4.8% | 0.0%
Cc1ccc(-n2ncc3c2CC(C)(C)CC3NC(=O)CCc2cnn(C)c2)cc1 (stereo not drawn) | 3.6% | -16.9%
C=CCNC(=O)c1ccc2c3n(nc2c1)-c1ccc(C)cc1CO3 | -0.9% | -15.0%
O=C1c2ccccc2N(Cc2ccc(Cl)cc2)C2=NCCN12 | -13.3% | 1.8%
COc1ccccc1-n1c(SCC(=O)Nc2ccc(F)cc2)nc2c(c1=O)SCC2 | -1.9% | 0.6%
CC(=O)c1cccc(NC(=O)C2CCCN(S(=O)(=O)c3ccccc3)C2)c1 (stereo not drawn) | -4.4% | -0.8%
CC(/C=C/C=C/c1ccccc1)=N/NC(=O)C(O)c1ccccc1 (stereo not drawn) | 9.7% | -11.1%
O=C1/C(=C/c2cccnc2)Cc2ccc(Cl)cc21 | 15.6% | -18.7%
Cc1ccnc(SCc2nc3ccccc3s2)n1 | -11.6% | -5.5%
CCN(CC(=O)Nc1ccccc1OC)C(=O)c1ccc(NS(=O)(=O)c2ccc(C(C)=O)cc2)cc1 | 18.3% | 0.5%
CC(C)CC(=O)OCC(=O)Nc1ccccc1Sc1ccccc1 | -17.3% | -4.6%
O=C1C2C3C=CC(CC3)C2C(=O)N1/N=C/c1ccc(O)cc1 (stereo not drawn) | -2.6% | -8.1%
Cc1c(C(=O)NNc2cc(=O)n(C)c(=O)n2C)cccc1[N+](=O)[O-] | -4.4% | 0.5%
CCOc1ccc(-n2nnc3c(=O)n(C/C=C/c4ccccc4)cnc32)cc1 | -1.5% | -3.7%
Nc1ccccc1S(=O)(=O)c1ccccc1N | 8.0% | 0.4%
CC1(C)CC(NC(=O)COc2ccc(Br)cc2Cl)CC(C)(C)N1 | -3.4% | -19.8%

Retrieved by structure from above:
SMILES | FEN1 inh | GCN5L2 inh
O=C1c2ccccc2N(Cc2ccc(Cl)cc2)C2=NCCN12 | -13.3% | 1.8%
O=C1/C(=C/c2cccnc2)Cc2ccc(Cl)cc21 | 15.6% | -18.7%

Carrying on.
SMILES | FEN1 inh | GCN5L2 inh
O=C(NCc1ccccc1)N1CCN(c2ccc(F)cc2)CC1 | -4.4% | 0.4%
COC(=O)CNC(=O)CNC(=O)c1nn(-c2ccc(OC)c(OC)c2)c(=O)c2ccccc12 | 20.2% | -18.3%
CCC(OC(=O)c1nsc(Cl)c1Cl)C(=O)NCCc1ccccc1 (stereo not drawn) | -5.0% | -2.9%
CC(=O)Nc1ccc(-c2nn[nH]n2)cc1Cl | 4.7% | 1.3%
COc1cccc(CNC(=O)c2ccc(S(=O)(=O)N3CCCC3)cc2)c1 | -5.0% | -1.4%
O=C(NC1CCCC1)c1ccc(Cn2c(=O)[nH]c3ccsc3c2=O)cc1 | 9.7% | -4.8%
CC(C)C(C(=O)NCc1ccco1)N(Cc1ccco1)C(=O)CNS(=O)(=O)c1ccc(F)cc1 (stereo not drawn) | -2.3% | -2.0%
CC(=O)N(c1c(C)n(C)n(-c2ccccc2)c1=O)C1(C(=O)NC2CCCCC2)CCCCC1 | -4.5% | -4.9%
COc1ccc(-n2nnc3c(=O)n(CC(=O)N4CCCc5ccccc54)cnc32)cc1 | 19.3% | u
C=CCc1ccc(O)c(-c2cc(CC=C)ccc2O)c1 | -7.5% | -15.4%&-0.4%&-4.5%
Cc1ccc2[nH]c(C)c(CCNC(=O)c3c(N)no[n+]3[O-])c2c1 | 6.4% | -4.2%
CCC(O)(C#CCN1CCCCC1)CC | -2.9% | -0.1%
COc1ccc(-c2nnc(SCc3ccccc3F)o2)cc1OC | 2.8% | -4.5%
COc1ccccc1NC(=O)c1sc2ncn(Cc3cccc(C)c3)c(=O)c2c1C | -11.4% | 3.8%
CN1CCCC2(CCCN(Cc3nc(Cc4cccc(C(F)(F)F)c4)no3)C2)C1 (stereo not drawn) | 11.3% | -4.2%
C/C(=N\NC(=O)c1cc(-c2cccc(OC(C)C)c2)nc2ccccc12)c1cccnc1 | -25.5% | -20.7%
c1ccc(-c2ncc(-c3ccn[nH]3)s2)cc1 | -1.0% | -12.2%
Cc1ccc(S(=O)(=O)c2c(N)n(/N=C/c3ccco3)c3nc4ccccc4nc23)cc1C | -15.0% | -19.0%
CCC(C)NS(=O)(=O)c1ccc(OCC(=O)Nc2ccc3c(c2)OCO3)cc1 (stereo not drawn) | -12.2% | -6.7%
O=C1c2cccc3cccc(c23)N1Cc1ccc(F)cc1 | -14.4% | -16.6%
Cc1ccccc1C(=O)NCCc1nnc(SCC(=O)Nc2nc(-c3ccccc3)cs2)n1C | -1.7% | -1.8%
CN1CCN(c2ccc(NC(=O)c3ccccc3)cc2)CC1 | -9.8% | -3.7%
CCOC(=O)CSc1ccc2nnc(-c3ccccc3)n2n1 | 15.5% | -3.9%
COc1ccc2nc(/C(C#N)=C\c3ccc(Oc4ccc([N+](=O)[O-])cn4)cc3)[nH]c2c1 | 5.8% | -6.4%
CCn1c(SCC(=O)Nc2ccc(C)cc2)nnc1-c1ccc(O)cc1 | 4.6% | 0.3%
CN(C)/C=C/C(=O)c1ccc(Br)s1 | 0.0% | -6.7%
Cc1ccc(C23CC4CC(CC(NC(=O)N5CCN(C)CC5)(C4)C2)C3)cc1 | -1.7% | 3.4%
